# Source: PubChem
# Sa helicase inh = S. aureus DNA helicase inhibition; inhibition, %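 (tested at about 80 µM)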; 120,000 tested, 0.05% active; purified S. aureus helicase, fluorescence unwinding assay; about half of the hits fall short of the stated cut; AID 485395;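 active = both duplicates at 50% or more, or one of them with a favoured structure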;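 also: 0% = mean of negative control wells and 100% = mean of positive control wells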
# MgrA-DNA mod = modulators of Staphylococcus aureus MgrA DNA binding | fluorescence polarization | inhibition, %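 (about 10 µg/mL by stock and volumes)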 | 84,000 tested, 0.13% active;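 active = above 50% in either of two replicates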;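 also: 0% = protein plus DNA without compound and 100% = DNA alone without protein; higher means less MgrA bound to DNA so lower polarization; one replicate is shown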
# The depositor's hits bear a star; x = not tested or not shown; & = joins results of further samples. Some of the compounds tested; the hit share may differ from the screen's.
SMILES,Sa helicase inh,MgrA-DNA mod
CCN(CC)c1ccc(NC(=O)COC(=O)Cn2nnc(-c3ccccc3)n2)cc1,-11,x
Cc1nc(CC(=O)N/N=C/c2ccc(CSC(F)F)o2)cs1,-17,x
Cc1cc(=O)[nH]c(SCC(=O)N(C)c2ccccc2)n1,4,3.1
COCC(=O)N1N=C(c2cccc(NS(C)(=O)=O)c2)CC1c1ccccc1F (stereo not given),24,x
O=C(O)Cc1ccc2c(c1)OCCO2,-23,-0.6
CSC1=N/C(=C\c2ccccc2Cl)C(=O)N1N(C)C,x,0.5
COc1cccc(C(=O)N(C)CC(OC)OC)c1,14,-0.5
Oc1cccc(Cn2c(-c3cccc(O)c3)nc3ccccc32)c1,0,x
COC(=O)c1c(C)[nH]c(C(=O)C(C)OC(=O)c2ccccc2NS(=O)(=O)c2ccc3[nH]c(=O)[nH]c3c2)c1C (stereo not given),-8,x
CCOc1cc(C#N)c(NC(=O)c2ccco2)cc1OCC,-18,x
N#C/C(=C\c1ccco1)C(=O)C1CC1,-17,x
O=C(Oc1cccc(-n2cnnn2)c1)C1CCCCC1,11,-0.5
O=C1CC(SCc2ccc(Cl)cc2)C(=O)N1c1ccc(Br)cc1 (stereo not given),6,-0.7
CNC(=O)CC1Sc2ccc(C(F)(F)F)cc2NC1=O (stereo not given),27,x
COCCNc1nc(-c2ccc(S(=O)(=O)N3CCCCC3)cc2)cs1,-8,x
O=C(CC1CCCCC1)Nc1ccc2nc3n(c(=O)c2c1)CCCC3,19,x
O=C(NNC(=O)c1ccc2ncccc2c1)c1cncc(Br)c1,x,1.3
CNc1nnc(Sc2nnc(NC)s2)s1,-14,x
CCN(c1ccccc1C(=O)O)S(=O)(=O)c1ccc2[nH]c(=O)[nH]c2c1,-9,x
COc1ccc(NC(=O)c2cc3nc(-c4ccc(OC)c(OC)c4)cc(C(F)(F)F)n3n2)cc1OC,x,2.1
Cc1ccc(C(C)NC(=O)/C=C/c2ccccc2)c(C)c1 (stereo not given),x,-1.6
COc1ccc(NC(=O)CC(C)S(=O)(=O)c2ccc3c(c2)CC(C)N3C(C)=O)cc1 (stereo not given),2,x
O=C(COC(=O)CC1CC2CCC1C2)Nc1ccc(F)cc1Cl (stereo not given),5,-0.7
CCN(CC)Cc1nc2ccccc2[nH]1,7,0.6
CCOc1cc(S(=O)(=O)n2c(C)nc3ccccc32)ccc1F,-16,x

# Whole records as entered above. Order of screens: Sa helicase inh | MgrA-DNA mod
# Shown for COCCNc1nc(-c2ccc(S(=O)(=O)N3CCCCC3)cc2)cs1 : -8 | x
# Shown for COCC(=O)N1N=C(c2cccc(NS(C)(=O)=O)c2)CC1c1ccccc1F (stereo not given) : 24 | x
# Shown for CCOc1cc(S(=O)(=O)n2c(C)nc3ccccc32)ccc1F : -16 | x

# The main list resumes; the 4 compounds before the break are reprinted first.
SMILES,Sa helicase inh,MgrA-DNA mod
COc1ccc(NC(=O)CC(C)S(=O)(=O)c2ccc3c(c2)CC(C)N3C(C)=O)cc1 (stereo not given),2,x
O=C(COC(=O)CC1CC2CCC1C2)Nc1ccc(F)cc1Cl (stereo not given),5,-0.7
CCN(CC)Cc1nc2ccccc2[nH]1,7,0.6
CCOc1cc(S(=O)(=O)n2c(C)nc3ccccc32)ccc1F,-16,x
CNc1nc(-c2ccc(F)c(F)c2)c(C)s1,-9,x
CCc1c(C)nc2c(C)cccc2c1SCCC#N,6,0.5
CC(C)NCC(O)COc1ccc2c(c1)CCC2 (stereo not given),-19,x
CCOc1cccc(NC(=O)c2ccc(Br)cc2F)c1,-1,x
COc1ccccc1CNC(=O)c1sc2nc[nH]c(=O)c2c1C,-1,x
N=C(N)C12CC3CC(CC(C3)C1)C2,x,4.4
O=C(NCCN1CCNC1=O)c1sc2ccccc2c1Cl,x,-0.4
Cc1ccnc(SCc2nc3ccc(Cl)cn3c2Br)n1,-23,x
COc1ccc(Br)cc1/C=C1/N=C(c2ccc(C)c([N+](=O)[O-])c2)OC1=O,x,2.6
CCN1C(=O)/C(=C\c2cc(C)n(-c3ccccc3)c2C)SC1=S,-33,x
CCc1ccc(OCC(=O)Nc2cccc(Cl)c2)cc1,1,x
O=C(c1cccs1)N1CCc2ccccc2C1,x,2.3
O=c1c2sc3ccccc3c2[nH]c(=S)n1CCCN1CCN(c2ccccc2F)CC1,3,2.8
CCn1c(COC(=O)C2CSC3(C)CCC(=O)N23)nc2cc(S(=O)(=O)N(C)C)ccc21 (stereo not given),-1,x
CSc1nnc(-c2sc3nc(C)cc(C)c3c2N)n1Cc1ccccc1,x,-0.7
O=C(c1cc(-c2cccs2)on1)N1CCCCC1,x,2.4
CCN(CC)CCOC(=O)c1ccc(NC(=O)CCN2C(=O)S/C(=C/c3ccc(OC)cc3)C2=O)cc1,x,-0.7
O=C(CS(=O)(=O)c1ccc(C(F)(F)F)cn1)NNC(=O)Nc1ccccc1,x,2.1
CC1=C/C(=N/N=c2\sc3ccccc3n2C)CC(C)(C)C1,-2,x
CCCCc1nc(NCc2ccccc2)c(C#N)c2c1CCCC2,0,x
Cc1noc(C)c1S(=O)(=O)N(Cc1ccccn1)Cc1ccccn1,-14,x
N#Cc1ccccc1OCc1ccccc1,18,1.7
CCOC(=O)c1[nH]cc(-c2ccccc2)c1N1CCOCC1,10,x
O=C(O)Cn1c(SC(F)F)nc2ccccc21,9,x
N#C/C(N)=C(/C#N)NCc1ccccc1Sc1ccc(Cl)cc1,x,-0.4

# Part of the list above in order of number of heavy atoms, highest first.
SMILES,Sa helicase inh,MgrA-DNA mod
CCN(CC)CCOC(=O)c1ccc(NC(=O)CCN2C(=O)S/C(=C/c3ccc(OC)cc3)C2=O)cc1,x,-0.7
CCn1c(COC(=O)C2CSC3(C)CCC(=O)N23)nc2cc(S(=O)(=O)N(C)C)ccc21 (stereo not given),-1,x
O=C(CS(=O)(=O)c1ccc(C(F)(F)F)cn1)NNC(=O)Nc1ccccc1,x,2.1
CCOc1cccc(NC(=O)c2ccc(Br)cc2F)c1,-1,x
N#Cc1ccccc1OCc1ccccc1,18,1.7

# New compounds follow:
SMILES,Sa helicase inh,MgrA-DNA mod
Cc1cc(=O)oc2cc(OCCOc3ccccc3)ccc12,4,x
Nc1nnn(Cc2ccccc2)n1,0,-2.5
O=S(=O)(/N=C(\Nc1ccc(O)cc1)c1ccccc1)c1ccccc1,-13,x
Clc1cccc(-c2nc(N3CCCC3)nc3c2COc2ccccc2-3)c1,11,0.2
O=C1CCCCC1Sc1nc2ccccc2s1 (stereo not given),7,0.9
Cc1ccc(/C=C2/SC(=Nc3ccc(O)cc3)NC2=O)o1,14,x
CCOC(=O)Nc1ccc(OC)cc1,9,x
O=C(N[C@@H](Cc1ccccc1)c1nc2ccccc2[nH]1)C1CC(=O)N(c2ccc3c(c2)OCCO3)C1 (stereo not given in full),-3,x
N#Cc1ccc(OCC(=O)N2CCCC2)cc1,-33,-1.1
C[N+]1(CCC(=O)NCc2ccccc2)CCCCC1,-5,0.9
CCOC(=O)C1(c2cccn2C)Sc2ccccc2NC1=O (stereo not given),13,x
CCCCn1c(N)c(C(=S)NC(=O)C2CC2)c(=O)[nH]c1=O,-1,x
Cc1nc(N2CCN(C(=O)c3ccco3)CC2)nc2c1C(=O)CC(c1ccccc1)C2 (stereo not given),-2,-0.3
COc1cccc(C(=O)N/N=C(\C)c2ccccc2O)c1,x,-1.4
CN1Cc2cc(C(=O)c3ccccc3O)cnc2NC1=O,-11,x
CC(C)(Oc1ccc(Cl)cc1)C(=O)OCC(=O)N1CCN(c2ccccc2)CC1,10,x
CC1CC(=O)Nc2ccccc2N1C(=O)c1ccc(Cl)cc1Cl (stereo not given),x,-2.0
Cc1cc(C)c(C#N)c(Sc2ccc(Cl)cc2)n1,x,-6.5
CCOc1ccc(OCC)c(NS(=O)(=O)c2ccc3[nH]c(=O)c(=O)[nH]c3c2)c1,36,x
CN(C)c1ccc(/C=C(\C#N)C(=O)OC(C)(C)C)cc1,-58,x
COc1cccc(C(=O)CS(=O)(=O)c2ccc(C)cc2)c1,16,3.6
CCNc1cc(N(C)C)nc(Oc2ccc(OCCOc3ccccc3C)nn2)n1,7,-2.5
Cc1csc(N(C(=O)c2ccc(S(=O)(=O)N3CCOCC3)cc2)c2ccccc2)n1,8,x
O=C(CSc1ccccc1)N1CCN(c2ccccc2)CC1,12,2.2
CCN(C(=O)CSc1nnc(Cc2ccccc2)o1)C1=CCCCC1,7,x
# Next section
SMILES,Sa helicase inh,MgrA-DNA mod
COc1ccc(-c2c(C(F)(F)F)oc3c(CN4CCCC(C)C4)c(O)ccc3c2=O)cc1OC (stereo not given),3,2.0
CCn1c(CC(=O)OC)csc1=Nc1ccc(Cl)cc1,4,x
CCOC(=O)c1ccc(N2CCOCC2)c([N+](=O)[O-])c1,x,0.0
CS(=O)(=NS(=O)(=O)c1cccc2nsnc12)c1ccc(Cl)cc1 (stereo not given),x,-0.5
CSc1nnc(Nc2ccccc2)n1-c1ccccc1,17,x
N#C/C(=C\Nc1ccccc1O)c1nc2ccccc2o1,5,1.6
CN1CCN(NC(=O)c2ccccc2Nc2ccc(SC(F)F)cc2)CC1,5,x
CS/C(=N\S(=O)(=O)c1ccccc1)Nc1cccc(SC)c1,x,-1.8
CNC(=O)NC(=O)C(C)Oc1ccc(NC(=O)c2ccccc2OC)cc1 (stereo not given),-1,x
CCCNc1nc2ccccc2n2cnnc12,-10,x
CCNC(=O)C12CCC(C)(C(=O)O1)C2(C)C (stereo not given),6,-2.1
CCOC(=O)c1c(C)oc(NC(=O)CSc2nc(Cc3ccccc3)c(C)[nH]2)c1C(=O)OCC,4,x
CN1C(=O)/C(=C/c2ccc(C(=O)OCCN3CCOCC3)cc2)SC1=S,10,x
Cc1cc(O)c(C(=O)Cc2ccccn2)c(O)c1,-1,x
CCn1c(=S)[nH]c2ccc(Br)cc2c1=O,-4,-0.2
CCC(=O)N1N=C(c2ccco2)CC1c1cn(-c2ccccc2)nc1-c1ccc(OC)cc1 (stereo not given),11,x
CCC(=O)NC(Nc1cc(C)ccn1)(C(F)(F)F)C(F)(F)F,9,x
O=C(COC(=O)/C=C\c1ccco1)Nc1ccc(OC(F)(F)F)cc1,6,3.4
COc1ccccc1Oc1ncnc2scc(-c3ccc(F)cc3)c12,18,x
COC(=O)C1=C(C)NC2=C(C(=O)CC(c3ccc(Cl)cc3)C2)C1c1cc(OC)c(OC)c(OC)c1 (stereo not given),x,-1.0
c1ccc(SCc2cc(-c3ccccc3)no2)cc1,x,0.6
CCc1c(O)nc(SCc2ccccc2)n(C2CCCCC2)c1=O,13,1.2
CN(C)/C=N/c1nnc(Sc2nc3c(Cl)cc(Cl)cc3s2)s1,x,-0.2
COc1ccc(OCCC(=O)Nc2ccc3[nH]c(=O)[nH]c3c2)cc1,-3,x
Cc1ccc(C(=O)Nc2nnc(SCc3ccccc3)s2)cc1,8,x
# (more compounds)
SMILES,Sa helicase inh,MgrA-DNA mod
Cc1nc2c(cc1C(=O)N/N=C/c1c[nH]c3ccccc13)c(=O)n(C)c(=O)n2C,17,x
CCCN(CCC)S(=O)(=O)c1ccc(CC)cc1,17,0.8
CC(=O)Nc1ccc(S(=O)(=O)N(C)CC(=O)OCc2c(C)noc2C)cc1,-10,x
O=C1C[C@H]2[C@H](CO)[C@@H](OC(=O)c3ccc(-c4ccccc4)cc3)C[C@H]2O1,-19,x
Cc1nccn1CC(=O)N/N=C/c1cccn1C,7,x
Cc1cc(C)cc(NC(=O)Cn2c(=O)c3cccn3c3ccccc32)c1,-8,1.6
Cc1cc2nc(CSc3nnc(N)s3)cc(=O)n2o1,-13,x
NS(=O)(=O)c1ccc(N2CCCC2c2ccc3c(c2)OCCCO3)nc1 (stereo not given),-2,x
FC(F)(F)c1cccc(C=NCc2ccc(-c3cccs3)s2)c1,x,-1.0
Cc1cccc(NC(=O)CSC2=C(C#N)C(c3ccccc3C)C3=C(CCCC3=O)N2)c1 (stereo not given),-27,x
CC(C)(SC1CC(=O)N(c2ccccc2)C1=O)C(N)C(=O)O (stereo not given),-2,-2.0
N#CCn1c(CSc2nc3ccccc3c(=O)n2CCC2=CCCCC2)nc2ccccc2c1=O,-19,x
CCOc1ccc(CCNC(=O)Cn2ncn3nc(-c4cccs4)cc3c2=O)cc1OCC,22,1.1
O=C(N/N=C/c1cccnc1)N/N=C/c1cccnc1,x,1.6
COc1cc(C=Nc2ccc(O)cc2)ccc1OC(=O)CC1SC(=O)NC1=O (stereo not given),10,4.2
O=C1Cc2cc(C(=O)CSc3nnc(C4CC4)n3-c3ccccc3)ccc2N1,15,x
Cc1onc(-c2ccccc2Cl)c1C(=O)Nc1ccc(S(=O)(=O)N2CCC(C)CC2)cc1,9,2.4
CC(C)(C)OC(=O)N[C@@H](CCCN=C(N)N)C(=O)O,x,-3.0
N#Cc1c(N2CCN(C(=S)NCc3ccccc3)CC2)nc(-c2ccccc2)c2c1CCCC2,-11,0.8
Nn1c(Cc2cccc3ccccc23)n[nH]c1=S,8,1.1
Nc1cc(=O)[nH]c(SCC(=O)Nc2ccccc2)n1,-16&-2,1.2
Cc1cc(=O)oc2cc(OCC(=O)N(c3ccccc3)C(C)C)ccc12,-6,x
CC(C)CCn1c(=O)c2sccc2n2c(CCCC(=O)NC3CC3)nnc12,-31,x
Cc1c(C)c(C)c(COc2ccc(Cl)cc2Cl)c(C)c1C,x,-2.5
O=C(Oc1cccc2cccnc12)c1cc(C(F)(F)F)cc(C(F)(F)F)c1,x,3.0
CN(C)CCOC(=O)CCN1C(=O)/C(=C/c2ccccc2Cl)SC1=S,x,5.0
CCCN1COc2ccc3c(C)cc(=O)oc3c2C1,24,x
CSc1ccc(NS(=O)(=O)c2ccc(-n3cnnn3)cc2)cc1,-4,-0.7
